gsp antagonist: antagonists of gsp mutant (McCune-Albright syndrome). gsp-mutant cells, cAMP HTRF, 30 min; control for the full effect not named in the record. Potency, µM (highest dose often 76.9 µM), for inactives: top-dose activity change, negative = inhibition, usual class: inhibitors. 340,000 compounds, 0.4% hits. AID 624288; active = falling curve of any shape with a large fitted effect; inconclusive = falling curve, mostly with a smaller effect; inactive = flat or rising curve; cell line not stated here;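 note: intracellular cAMP measured with PDE inhibitor Ro 20-1724 present during compound exposure; potency is the fitted concentration of half-maximal effect; % is set by controls: 0 for no effect and ±100 for the full control effect; nearly all actives have a fitted effect of over 65% in size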
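Measurement of cellular cAMP by homogeneous time-resolved fluorescence following a 30 min compound exposure at 37C. The PDE inhibitor […] was present throughout; the assay buffer was DPBS with 0.05% BSA and 0.005% Tween 20.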
PINK1 modulator: changes PINK1 expression; PINK1 immunofluorescence, high-content cytometry, 24 h; Potency, µM (highest dose often 76.6 µM), inactives show top-dose activation (PINK1 increase), actives largely listed as activators; 410,000 compounds, 0.2% hits; AID 624263; active = well fitted activation curve with a large enough effect; inconclusive = small, poorly fitted or top-dose-only effect; inactive = flat fitted curve, though single readings scatter; cell line not stated here;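 note: potency is the fitted concentration of half-maximal effect; % of control where 0% means no effect; nearly all actives have a fitted effect of over 65% in size; a mitochondrial uncoupler was the plate control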
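PINK1 protein, normally rapidly degraded, was detected by immunofluorescence after 24 hour compound treatment of a stable cell line. Titration data (5 concentrations) came from laser-scanning cytometry, with CCCP-treated wells as controls.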
ClpP mod: qHTS Assay for Activators of ClpP. ATP-dependent Clp protease proteolytic subunit (Bacillus subtilis (strain 168)), P80244. purified B. subtilis ClpP, FRET peptide cleavage, 20 min. Potency, µM (doses to about 57.5 µM), inactives show top-dose activity change, negative = active. 340,000 compounds, 1.9% hits; active = well fitted falling curve with a large enough effect; inconclusive = small, poorly fitted or top-dose-only effect; inactive = no such curve, though single readings can be large or run the other way; note: potency is the fitted concentration of half-maximal effect; the source files actives as falling curves though it sought activators and does not explain the sign; nearly all actives have a fitted effect of over 65% in size; many hits overshoot -100%
Target sequence (P80244 whole entry, looked up): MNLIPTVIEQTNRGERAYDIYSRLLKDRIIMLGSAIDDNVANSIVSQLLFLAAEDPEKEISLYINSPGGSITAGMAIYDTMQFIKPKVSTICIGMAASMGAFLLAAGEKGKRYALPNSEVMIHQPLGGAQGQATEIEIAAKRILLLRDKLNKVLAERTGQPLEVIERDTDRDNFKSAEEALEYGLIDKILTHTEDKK
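Purified B. subtilis ClpP, 10 microg/mL final in Tris/HCl pH8 with KCl, BSA, glycerol and Tween-20, cleaved an Abz/nitrotyrosine-quenched decapeptide. Fluorescence (ex 320, em 430) was read at 0 and 20 min at room temperature. Delta was normalized to 5.8 microM ADEP and DMSO/no-enzyme controls.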
D2 ag: human D2 receptor agonism in beta-arrestin assay; P14416; DiscoveRx PathHunter D2 beta-arrestin, luminescence, 90 min; 100% = 57 uM dopamine signal; activation, % (test concentration not listed); 360,000 compounds, 0.084% hits; AID 624465; in the data active = activation above about 40%; inconclusive = about 15% to 40%; inactive = below about 15%; note: compound concentration not given in the record; the text of the record calls up to 30% inactive
Target sequence (P14416 whole entry, looked up): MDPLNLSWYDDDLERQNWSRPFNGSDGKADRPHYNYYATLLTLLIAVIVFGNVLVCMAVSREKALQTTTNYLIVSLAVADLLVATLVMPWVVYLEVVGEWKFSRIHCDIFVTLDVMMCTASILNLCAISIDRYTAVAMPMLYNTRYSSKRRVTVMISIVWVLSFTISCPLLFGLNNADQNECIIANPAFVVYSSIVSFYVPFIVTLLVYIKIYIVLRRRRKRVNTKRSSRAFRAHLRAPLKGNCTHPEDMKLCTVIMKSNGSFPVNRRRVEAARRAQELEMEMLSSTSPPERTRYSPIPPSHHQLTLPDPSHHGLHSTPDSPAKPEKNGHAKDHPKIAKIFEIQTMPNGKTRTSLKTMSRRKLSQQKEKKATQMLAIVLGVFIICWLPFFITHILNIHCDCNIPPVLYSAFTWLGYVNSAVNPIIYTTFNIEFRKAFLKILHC
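Agonist mode: compounds alone added to overnight-plated D2 PathHunter cells for 90 min at 37 C, with 57 uM final dopamine (EC100) defining full response. Beta-arrestin recruitment detected by chemiluminescent reagent, read after 1 h at ambient temperature.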
Menin MLL FP FL: inhibitors of human menin-MLL interaction, wild-type MLL peptide. Fluorescence polarization, fluorescein-MLL peptide displacement from menin. FP activity change, % at 61.4 µM. 290,000 tested, under 10 active; inconclusive = falling polarisation curve, or a change in total fluorescence; inactive = total fluorescence flat and polarisation flat or rising; no compound was filed as active; the % refers to the polarisation; negative = inhibition;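 note: % of control where 0% means no effect; inhibitors lower the polarisation; unlabelled MLL peptide was the positive control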
gsp ag: agonists of gsp mutant (McCune-Albright syndrome) | AID 624287 | gsp mutant cells, cAMP HTRF, 30 min; control for the full effect not named in the record | Potency, µM (titrated, usually from 76.9 µM), for the others: top-dose activation (cAMP increase), usual class: activators | 340,000 compounds, 0.13% hits; active = well fitted activation curve with a large enough effect; inconclusive = small, poorly fitted or top-dose-only effect, or another doubt; inactive = no such curve, though single readings can be large or run the other way; cell line not stated here;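 note: phosphodiesterase inhibitor Ro 20-1724 added with compounds to block cAMP breakdown; potency is the fitted concentration of half-maximal effect; nearly all actives have a fitted effect of over 60% in size; about a fifth of the inactives were tested at one dose only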
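Cells in DMEM/10% FBS with G418 were pretreated with compounds in DMSO plus […] (300 uM stock) for 30 min at 37C. cAMP was measured by HTRF (cAMP-d2 plus anti-cAMP antibody-K) after 30 min at room temperature.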
Sfp PPTase inh: blocks B. subtilis Sfp PPTase activity; AID 1490; Biochemical Sfp PPTase activity, qHTS; 310,000 compounds, 3.5% hits; Potency, µM, without a hit: max response, negative = inhibition, hits mostly inhibitors; active = well fitted inhibition curve with a large enough effect; inconclusive = small, poorly fitted or top-dose-only effect, or another doubt; inactive = no such curve, though single readings can be large or run the other way;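 note: the enzyme is Sfp with the accession as filed and its product quenches rhodamine fluorescence; potency is the fitted concentration of half-maximal effect; 0% = enzyme reaction without inhibitor and -100% = no enzyme wells; top concentration of the series not given in the record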
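With Hepes-Na pH 7.6 buffer containing 10 mM MgCl2, Sfp (15 nM) modified BHQ-2-YbbR (12.5 uM) using rhodamine-CoA (5 uM). Two reads 30 minutes apart at 525/598 nm yielded each well's rate.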
Active calls of the source: *; ? = inconclusive; . = not tested or not shown; & = joins results of further samples; ! = not active in a repeat; [ ] = remark or other dose. Rows were taken by chance. Share with any hit: about 5.1%.

SMILES	gsp antagonist	PINK1 modulator	ClpP mod	D2 ag	Menin MLL FP FL	gsp ag	Sfp PPTase inh
O=C(O)Cc1ccc(NC(=O)c2ccc(NC(=O)C3CC3)cc2)cc1	7%	-0.8%	-2.3%	-4.4	0.8	-43%	2%
CC(=O)c1ccc(N2CCN(C(=O)C3(S(=O)(=O)c4ccc(Cl)cc4)CC3)CC2)cc1	-16%	-2.4%[38.3 µM]	-8.9%	2.7	4.5	-1%	14%
Cc1ccc(S(=O)(=O)CC(O)COc2ccc(F)cc2Cl)c(C)c1 (stereo unspecified)	.	3.8%	.	-6.1	8.4	6%[15.4 µM]	-13%
COC(=O)c1ccc(OCCOc2ccccc2)cc1	11%	9.8%	1.4%	0.1	0.5	-37%[inhibitor]	0%
Cc1cccnc1C(NC(=O)C1CCN(CCCc2ccccc2)CC1)c1ccc(F)cc1 (stereo unspecified)	.	-0.1%	-0.7%	-2.3	.	.	.
COc1ccc(N2CCN(C3CCCN(Cc4cccc(C(C)=O)c4)C3)CC2)cc1 (stereo unspecified)	-20%	4.7%	-3.7%	-5.6	3.2	-30%	24%
COc1ccc(C(C)=O)cc1COC(=O)c1ccc(S(=O)(=O)N(C)C)cc1	-14%	-0.4%	-0.8%	0.3	-0.8	-14%	-2%
CCOC(=O)c1cc(-c2ccccc2C)n(CC2CC(c3ccc(OC)cc3)=NO2)n1 (stereo unspecified)	-17%	1.0%	-1.4%	-0.2	.	-34%[inhibitor]	.
Cc1cc2ncn(-c3ncnc4sc5c(c34)CCCC5)c2cc1C	9%	1.8%	-6.0%	-4.9	1.5	19%	1%
CCOC(=O)c1c(N2C(=O)Nc3ccccc3N2O)sc2c1CCCCC2	-3%	0.4%	.	-1.1	0.7	-2%[15.4 µM]	7%
CC(C(=O)Nc1ncn[nH]1)N1C(=O)c2ccccc2C1=O (stereo unspecified)	10%	0.7%	1.7%	-3.5	3.1	-20%	-13%
O=C(CCc1ccccc1)NNC(=O)Cc1ccc(Cl)cc1	7%	0.7%	.	7.5	-0.2	-18%	15%
Cc1ccc(C(=O)COc2ccccc2N2C(=O)c3ccccc3C2=O)cc1	18%	0.0%	.	-4.2	1.9	17%[15.4 µM]	-6%
Cn1c(CCNC(=O)c2ccco2)nc2cc(NC(=O)c3ccccc3Cl)ccc21	-12%	9.9%	.	4.5	0.7	-34%[15.4 µM]	-4%
C=CCOc1cccc(/C=N/NC(=O)C(=O)NCc2ccco2)c1	4%	-0.4%	2.1%	-2.3	5.3	-32%[inhibitor]	15%

3 compounds out of the list above, ordered by the value under Sfp PPTase inh, descending:
Molecule | gsp antagonist | D2 ag | Menin MLL FP FL | gsp ag | Sfp PPTase inh
CCOC(=O)c1c(N2C(=O)Nc3ccccc3N2O)sc2c1CCCCC2 | -3% | -1.1 | 0.7 | -2%[15.4 µM] | 7%
Cc1cc2ncn(-c3ncnc4sc5c(c34)CCCC5)c2cc1C | 9% | -4.9 | 1.5 | 19% | 1%
Cc1ccc(S(=O)(=O)CC(O)COc2ccc(F)cc2Cl)c(C)c1 (stereo unspecified) | . | -6.1 | 8.4 | 6%[15.4 µM] | -13%

The list continues.
SMILES	gsp antagonist	PINK1 modulator	ClpP mod	D2 ag	Menin MLL FP FL	gsp ag	Sfp PPTase inh
C/C(=N\OC(=O)NC(C)C)c1sc(-c2ccc(Cl)cc2)nc1C	-22%	1.7%	-7.0%	-1.0	6.6	-3%	-17%
COc1ccc(CCNC(=O)CN2C(=O)NC(c3ccccc3)(c3ccccc3)C2=O)cc1	-10%	-1.2%	-1.6%	-0.8	.	?	.
CCC1C(=O)N=C(SCC(=O)Nc2ccc(Br)cn2)NC1=O (stereo unspecified)	-19%	-0.4%	2.6%	1.5	-2.6	23%	4%
O=C(CCCl)Nc1ccc(S(=O)(=O)NCc2ccco2)cc1	17%	-1.4%	.	0.4	3.1	0%[15.4 µM]	17%
COc1cc(C2/C(=C(\O)c3ccc4c(c3)CC(C)O4)C(=O)C(=O)N2Cc2ccco2)ccc1O (stereo unspecified)	-13%	1.0%	-7.4%	-5.9	4.2	10%	21%
CSc1ccc(/C=N\NC(=O)CC(=O)NC(C)C)cc1	7%	-0.2%	3.9%	-4.0	0.7	18%	14%
COn1c(SCC(=O)N(C)C)nc2ccccc2c1=O	3%	1.6%[38.3 µM]	-2.3%	-3.8	4.0	2%	0%
O=S(=O)(c1ccc2nc(Nc3ccccc3)ccc2c1)N1CCCCC1	0%	?	.	-2.5	1.3	9%	50µM*
CCC(=O)c1ccc(OCC(=O)OCC(=O)N2CCc3ccccc32)cc1	6%	-1.0%	2.0%	-1.9	.	-13%	.
Cc1ccc(NC(=O)Cc2c(C(=O)O)n(C)c3ccccc23)cc1F	2%	-0.6%	.	-2.3	3.3	12%[15.4 µM]	9%
O=C(NNS(=O)(=O)c1ccc(Br)cc1)c1ccncc1	1%	5.3%[38.3 µM]	0.3%	-0.8	0.9	13%	-4%
CC(C)[C@H](NC(=O)N1CCn2c1nc1ccccc12)C(=O)NCC1CCCO1 (stereo partly specified)	14%	2.3%	-2.0%	-2.6	-1.8	-39%[inhibitor]	4%
N#Cc1c(NC(=O)c2cccc(S(=O)(=O)Nc3ccc(C(=O)O)cc3)c2)sc2c1CCCC2	-3%	-1.6%	.	-2.5	0.2	-9%[15.4 µM]	2%
O=C(CSc1nc2ccccc2c(=O)n1-c1ccc(F)cc1)Nc1ccc(N2CCOCC2)cc1	-12%	4.3%	6.6%	-1.7	-2.4	?	-15%
CCN(C[C@H]1N[C@@](Cc2ccccc2)(C(=O)OC)[C@H]2C(=O)N(C)C(=O)[C@@H]12)C(=O)Nc1ccc(C)cc1	6%	-0.6%	-1.5%	-2.2	.	.	.
COc1cccc(C(O)c2nc(-c3cccc(NC(C)=O)c3)cs2)c1 (stereo unspecified)	.	1.3%	-2.5%	2.2	.	.	.
CCCNc1cc(C)c(C#N)c2nc3ccccc3n12	2%	15%	2.8µM*	-0.5	0.9	?	-10%
CCN(CC)CCCC1(CN)OCCc2ccccc21 (stereo unspecified)	-1%	-0.3%	-11%	-4.0	0.0	10%	9%
COc1ccc2c(CC(=O)OCC(=O)Nc3ccc(C)cc3)coc2c1	10%	-0.2%	-1.8%	-5.8	.	5%	.
O=C(O)/C=C/C(=O)Nc1ccc(Cl)cc1C(=O)c1ccccc1	-10%	0.0%	.	-3.6	0.2	-2%[15.4 µM]	79µM*
Cc1nnc(SCC(=O)Nc2cccc(Br)c2)s1	0%	-0.9%	0.6%	-3.2	.	-27%	.
CCCCNC(=O)NNC(=O)c1cc(C)on1	-2%	-0.9%	0.3%	1.4	0.3	0%[15.4 µM]	0%
CC(=O)Nc1ccc(S(=O)(=O)NCCC(=O)Nc2cc(C)ccn2)cc1	5%	-0.2%	1.4%	-1.3	.	-3%[15.4 µM]	.
Clc1ncc2[nH]cnc2n1	9%	0.5%	.	-3.5	-6.0	-1%[15.4 µM]	-5%
CNC(=O)NNC(=O)c1csc(Cc2c(Cl)sc3ccc(Cl)cc23)n1	-4%	-1.4%	-0.6%	-2.8	4.5	7%	-4%
O=[N+]([O-])c1ccccc1OCCCn1cnc2ccccc21	2%	-0.3%	0.9%	2.7	-5.7	9%[15.4 µM]	-24%
COc1ccccc1CNC(=O)c1ccc(-c2ccccc2)cc1	9%	9.6%	.	-0.5	0.2	-5%	?
Cc1nnc(SCc2nc3sc(C(=O)O)c(C)c3c(=O)[nH]2)s1	-2%	0.4%	.	0.1	?	11%[15.4 µM]	9%
O=C(NCc1ccc(Cl)c(Cl)c1)c1cc(C2CCCCN2C(=O)OCCF)on1 (stereo unspecified)	.	-0.5%	1.4%	3.8	.	.	.
O=C(NCc1ccccc1)c1ccccc1C(=O)c1ncc[nH]1	5%	1.4%	.	5.5	-0.3	4%[15.4 µM]	?
COc1ccc(CCn2nnnc2C(CC(C)C)N2CCC(C(N)=O)CC2)cc1OC (stereo unspecified)	-11%	0.3%	2.3%	-0.1	1.6	12%	-13%
O=C(O)c1ccccc1Nc1ccc([N+](=O)[O-])c2nonc12	-12%	4.8%	.	-3.8	?	5%	-9%
O=S(=O)(NN=C(c1ccccc1)c1ccccc1)c1ccccc1	.	0.0%	-0.4%	0.9	.	?	.
COc1ccc(CNc2nc(=S)[nH]c3cc(OC)c(OC)cc23)cc1	0%	0.0%	-4.7%	1.2	-4.4	?	-15%
CC(=O)O[C@H]1C(=O)[C@@]2(C)[C@H]([C@H](OC(=O)c3ccccc3)[C@]3(O)C[C@H](OC(=O)[C@H](O)[C@@H](NC(=O)c4ccccc4)c4ccccc4)C(C)=C1C3(C)C)[C@]1(OC(C)=O)CO[C@@H]1C[C@@H]2O	0%	3.7%&1.5%	-2.4%&0.7%	-4.5	?	.	50µM*!
CNCC(=O)Nc1c(C)n[nH]c1C	11%	1.0%	1.2%	-0.7	4.3	-10%[15.4 µM]	8%
CCCN1C(=O)CC(Sc2ncccc2C(=O)O)C1=O (stereo unspecified)	6%	-0.2%	0.3%	-4.6	1.2	-32%	13%
CCOc1ccc(-c2nnc3ccc(SC(C)C)nn23)cc1	-15%	2.9%	-2.1%	-0.4	4.4	?	?
O=C(O)c1ccc(C(=O)c2ccc3c(c2)C(=O)N(CCO)C3=O)cc1	7%	2.8%	.	-2.6	2.4	-21%[15.4 µM]	5%
Cc1nnc(NC(=O)CSc2nnc(C)n2-c2ccc(F)cc2)s1	-4%	1.4%	0.2%	-3.5	-1.3	-39%[inhibitor]	-3%
CN(CCCNC(=O)c1cccn2c(=O)c3ccccc3nc12)Cc1ccccc1	-9%	1.8%[38.3 µM]	-3.4%	-3.4	-1.1	-1%	5%
Cc1cccc(N2CCN(C(=O)c3cccc(S(=O)(=O)N4CCOCC4)c3)CC2)c1C	-7%	1.0%	1.2%	1.1	.	5%[15.4 µM]	.
O=C1N[C@@H](Cc2cnc[nH]2)C(=O)N2CCC[C@@H]12	0%	1.0%	2.9%	-5.6	-0.3	.	-8%

Compound activity deposited in PubChem by National Center for Advancing Translational Sciences (NCATS).
